Compound activity deposited in PubChem BioAssay by National Center for Advancing Translational Sciences (NCATS).
PMP22 txn prim = modulators of PMP22 gene transcription in S16 Schwann cells. S16 Pmp22-F2sN Schwann cells (luciferase reporters placed in the Pmp22 gene), FLuc/NLuc coincidence luminescence, 24 h. Potency, µM (series often up to 57.5 µM), for inactives: at the highest dose activity change, negative = inhibition, usual class: inhibitors. 2% of 43,000 active. AID 1508649; active = clear falling dose curves in both reporters; inconclusive = both reporters move, but less clearly or upward; inactive = either reporter flat; the % is the NLuc reporter signal; note: % is set by controls: 0 for no effect and ±100 for the full control effect; some results filed as inactive show a strong effect at the top dose
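qHTS, 1536-well. Cells seeded, compounds added by pin tool, 24 h 37C. Nano-Glo reagent 1 (lysis/FLuc), 10 min RT, read; Stop&Glo, 10 min RT, read NLuc.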
HTT promoter inh = inhibitors of huntingtin promoter activity | 0.93% of 48,000 active | HEK293 HTT promoter firefly luciferase reporter (activity 0% = vehicle and -100% = no light), 24 h | AID 1508623 | Potency, µM (highest dose often 57.5 µM), inactives show top-dose activity change, negative = inhibition, most hits filed as inhibitors; active = well fitted inhibition curve with a large enough effect; inconclusive = small, poorly fitted or top-dose-only effect; inactive = no such curve, though single readings can be large or run the other way; note: nearly all actives have a fitted effect of over 50% in size
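HEK293 cells carrying firefly luciferase reporters were seeded at 2,500 per well in Opti-MEM and cultured for 24 h. They were then treated with compounds at up to 57.5 uM final for 24 h at 37 degrees C before Dual-Glo luminescence readout.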
Numbers without * were called inactive; ? = inconclusive; · = not tested or not shown; [ ] = remark or other dose. Potency is the fitted concentration of half-maximal effect.

SMILES | PMP22 txn prim | HTT promoter inh
CCn1cc(S(=O)(=O)c2ccc(C)cc2C)c(=O)c2cc(F)c(N3CCCCC3)cc21 | -32% | ?
Cc1ccc(NC(=O)CSc2nc(=O)n(CCN3CCOCC3)c3c2CCC3)c(C)c1 | -11% | -31%
Cc1ccc([N+](=O)[O-])cc1S(=O)(=O)N1CCn2cccc2C1c1ccc(F)c(F)c1 (centres undefined) | -18% | 5%
Cn1c(=O)c2c(nc(N3CCOCC3)n2Cc2ccc(Br)cc2)n(C)c1=O | -10% | -5%
COc1ccc(-c2onc(C)c2C)cc1S(=O)(=O)N1CCc2ccccc21 | ? | ?
COc1cccc(CNC(=O)C2CCC(CNS(=O)(=O)c3cccs3)CC2)c1 (centres undefined) | 18% | 6%
COc1ccc(Cl)cc1NC(=O)c1nc(S(C)(=O)=O)ncc1N(Cc1ccc(C)cc1)Cc1ccco1 | -6% | -17%
Cc1ccc(-n2c(SCC(=O)N3CCC(C)CC3)nc3c([nH]c4ccccc43)c2=O)cc1 | -18% | 31%[activator]
Cc1oc(-c2ccccc2F)nc1Cn1c(SCc2cccc(Cl)c2)nc2ccncc21 | ? | -25%
COc1cccc(C2=NS(=O)(=O)N(C)C(C(=O)Nc3ccccc3SC)=C2)c1 | -1% | -11%
COc1ccccc1-c1cc2nc(C)c(CCC(=O)NCCc3ccc(SC)cc3)c(C)n2n1 | ? | 20µM*
CCOc1ccc(CCNC(=O)C2CCCN(S(=O)(=O)N(C)c3ccc(F)cc3)C2)cc1 (centres undefined) | 11% | ?
Cc1ccc(Cc2nc3ccccc3nc2SCC(=O)N2CCc3ccccc32)cc1 | -10% | -7%
Cc1ccc(Nc2c(-c3ccccc3O)nc3ccc(Br)cn23)cc1 | -44% | 15%
N=C(N)N1CCc2ccccc2C1 | · | -1%[6.01 µM]
Cc1ccc(NC(=O)c2oc3ccc(S(=O)(=O)N(C)C4CCCCC4)cc3c2C)c(C)c1 | -24% | -12%
O=C(Nc1ccc(NC(=O)c2cccs2)cc1)c1ccc(Cl)cc1 | 33% | -1%
Cc1ccc(CNC(=O)C2CCN(c3nn4cc(-c5ccc(F)cc5)nc4s3)CC2)cc1 | -11% | 16%
Cc1ccc(C(=O)N2CC(=O)Nc3ccc(Br)cc3C2c2ccc(F)cc2)cc1C (centres undefined) | ? | ?
COc1cccc(NC(=O)C(Cc2ccccc2)N2Cc3ccccc3C2=O)c1 (centres undefined) | -10% | -10%
COc1ccc(NC(=O)Cn2nnc(C(=O)Nc3ccc(C)c(F)c3)c2N)cc1Cl | ? | -24%
c1ccc(N2CCN(c3ncnc4c3nc3n4CCCC3)CC2)cc1 | ? | 13µM*
O=C(NCCCN1CCCCCC1)c1ccc2c(c1)sc1nc(-c3ccccc3)cn12 | -23% | ?
CN(C)CCNC(=O)C1CCN(c2nc3ccccc3[nH]2)CC1 | -1% | 3%
Cc1ccc(-c2nc(CSc3nnc(C)n4c3cc3occc34)c(C)o2)cc1 | 28% | 1%
Cc1ccc(CN2CCC(CNC(=O)Nc3cccc(C)c3C)C2)cc1 (centres undefined) | ? | -3%
COc1ccc(NC(=O)Cn2cnc3sc(C)c(S(=O)(=O)N4CCN(C)CC4)c3c2=O)cc1Cl | 34% | -1%
CCCN(C(=O)CCc1nc(-c2ccccc2F)no1)c1ccc(CC)cc1 | ? | ?
Cc1cc(-c2ccc(CC(=O)Nc3ccc(-c4cccnc4)cc3)cc2)ccn1 | · | ?
COc1cc(NC(=O)c2cc3cc4ccc(C)cc4nc3o2)cc(OC)c1OC | -12% | ?
COc1ccc(C(=O)c2cnc3ccc(C)cc3c2S(=O)(=O)c2ccccc2)cc1 | ? | ?
COc1ccc(NC(=O)Cn2c(=O)c(-c3cc(C)ccc3NC(C)=O)nc3ccccc32)c(OC)c1 | ? | 2%
Cc1ccc(CSc2nc3cccnc3n2Cc2nc(-c3ccccc3F)oc2C)cc1 | ? | ?
CCOc1ccc(-c2nnc(SCC(=O)N(CC)c3cccc(C)c3)o2)cc1 | -22% | -15%
CCCN(C(=O)c1nn(-c2ccc(OC)cc2)c(=O)c2c1c1ccccc1n2C)c1ccc(CC)cc1 | -24% | -21%
COc1ccccc1Cn1c(CNS(=O)(=O)c2ccccc2Cl)nc2cccnc21 | -12% | -8%
CCOC(=O)c1sc(NC(=O)C(C)Sc2nc(-c3ccccc3)cc(C(F)(F)F)n2)c(C(=O)OC)c1C (centres undefined) | -28% | 5%
CC(C)CNc1ncnc2c1nnn2C | 1% | -8%
Cc1ccc(OC(C)C(=O)Nc2nonc2-c2ccc(Br)cc2)cc1C (centres undefined) | -8% | -16%
COc1ccc(-c2cc(C(C)=O)c(C)n2CCC(=O)NC2CCCCC2)cc1 | 3% | -13%
CCOC(=O)C1CCN(C(=O)Cn2nc(C)n3c(cc4cc(C)ccc43)c2=O)CC1 | -34% | -9%
CCOC(=O)c1sc2ncn(CC(=O)Nc3ccc(N(C)C)cc3)c(=O)c2c1C | -14% | -9%
Cc1c(C(=O)N2CCC(C(=O)Nc3ccc(F)cc3)CC2)sc2nc[nH]c(=O)c12 | -8% | -9%
COc1ccc(C2c3c(-c4ccccc4O)n[nH]c3C(=O)N2CCc2ccccc2)cc1 (centres undefined) | ? | ?
Cc1ccc2c(=O)cc(C(=O)Nc3nnc(CC(C)C)s3)oc2c1C | -9% | 8%
CCOc1ccc(NC(=O)C(CC)n2c(=O)c(-c3ccccc3NC(C)=O)nc3ccccc32)cc1 (centres undefined) | -20% | ?
CCC1CN(C(=O)Nc2ccc(C(=O)O)cc2)c2cc(Cl)ccc2O1 (centres undefined) | 50% | -10%
COc1cccc(-c2nc3c(C#N)c[nH]n3c2NC2CCCC2)c1OC | ? | -19%
Cc1ccc(NC(=O)N2CCc3cc(S(=O)(=O)N4CCC(C)CC4)ccc32)cc1C | ? | -2%
Cc1cccc(CN2CCN(CC(=O)NCc3ccc(Cl)cc3)C2=O)c1 | -22% | -12%

(further entries)
SMILES | PMP22 txn prim | HTT promoter inh
Cc1cc(Cl)ccc1NC(=O)CN(c1ccccc1Br)S(C)(=O)=O | -6% | -19%[11.5 µM]
O=C(C1COc2cc(S(=O)(=O)Nc3ccc(Cl)cc3)ccc2O1)N1CCCC1 (centres undefined) | 3% | ?
CCOc1ccc(C2=CC(c3cc(Br)ccc3F)n3ncnc3N2)cc1Cl (centres undefined) | 1% | -11%
Cc1ccc(CNC(=O)c2c(-c3ccc(F)cc3F)noc2C)o1 | -25% | -11%
COc1ccc(CNC(=O)Cn2ncn3nc(-c4cccs4)cc3c2=O)cc1 | -39% | -2%
Cc1ccc(-c2nnc3c4ccccc4c(C)nn23)cc1NC(=O)c1ccccc1Cl | -9% | -1%
CC(=O)N1CCc2nc3sc(C(=O)c4ccc(F)cc4)c(N)c3c(C(F)(F)F)c2C1 | ? | ?
CCOC(=O)c1oc2ccc(S(=O)(=O)n3nc(-c4cc(OC)c(OC)c(OC)c4)cc3N)cc2c1C | ? | -28%
O=C1CN(C(=O)COc2ccc(Cl)cc2Cl)C(c2ccc(F)cc2)c2cc(F)ccc2N1 (centres undefined) | -10% | ?
Cc1ccc(N2CC(NC(=O)c3ccccc3Br)CC2=O)cc1 (centres undefined) | 1% | -23%
Cc1ccc(N(Cc2cccs2)C(=O)COc2cccc(C)c2)cc1 | ? | ?
CC1CCc2c(sc3nc(-c4cc5cc(Br)ccc5oc4=O)[nH]c(=O)c23)C1 (centres undefined) | -34% | -6%
Cc1ccc(NC(=O)c2ccco2)c(OCc2cc(=O)n3cc(C)sc3n2)c1 | -17% | -6%
CC(Oc1ccccc1)C(=O)Nc1ccc(C(=O)OCc2cc(=O)n3ccsc3n2)cc1 (centres undefined) | -39% | -24%
CCOc1ccc(NC(=O)c2cc(=O)c3ccc(C)c(C)c3o2)cc1 | ? | -11%[11.5 µM]
CCOC(=O)c1cccc(NS(=O)(=O)c2c(C)nc3sc(C)cn3c2=O)c1 | ? | ?
COc1cccc(CNC(=O)c2nn(C)c3c2CSc2ccccc2-3)c1 | -14% | -15%
COc1ccc(-n2nc(C(=O)Nc3cccc(C)n3)c3c4ccccc4n(C)c3c2=O)cc1Cl | 4% | -21%
CCCCNC(=O)CSc1nc(-c2ccc(OC)cc2)cc(C(F)(F)F)n1 | -7% | -14%
Cc1ccc2c(c1)N(CC(=O)NCc1cccc(Cl)c1)C(=O)c1cccnc1O2 | -24% | -16%
CCCn1c(=N)c(C(=O)NC2CCCC2)cc2c(=O)n3cccc(C)c3nc21 | ? | -7%
Cc1ccc2c(CN3CCN(C(=O)c4ccc(Br)cc4)CC3)cc(=O)oc2c1 | ? | -10%
CCOC(=O)c1ccc(NC(=O)c2c(NC(C)=O)sc3c2CCC(C)C3)cc1 (centres undefined) | 20% | ?
CCCCCCCC/C=C\CCCCCCCC(=O)NCc1ccc(O)c(OC)c1 | · | -2%
CCC(=O)N1CCc2cc(CNC(=O)Nc3ccccc3Cl)ccc21 | -12% | -10%
COc1ccc(Cn2c(=O)[nH]c3cc(C(=O)N4CCN(c5cc(C)ccc5C)CC4)ccc3c2=O)cc1 | -20% | -27%
Cc1oc(-c2ccc(C(=O)NCCC(C)C)cc2)nc1CN1CCc2ccccc21 | -75% | ?
COc1ccc(CCNC(=O)C(C)n2c(=O)cc(C(F)(F)F)c3c(C)nn(C)c32)cc1OC (centres undefined) | 5% | -17%
COc1ccc(C(=O)NCc2ccc3c(c2)CCN3C(=O)c2ccc(F)cc2)cc1 | 2% | ?
COc1ccc(CCCc2nnc(SCC(=O)Nc3cc(C)ccc3C)o2)cc1 | -7% | ?
CCCCC(=O)Nc1ccc2nc(SCC(=O)N3CCOCC3)sc2c1 | -29% | -13%
CCOc1ccc(-c2csc(-c3c(N)c(C(=O)c4ccc5c(c4)OCO5)n4ccccc34)n2)cc1 | -1% | 0%
Cc1ccc(NC(=O)CN2C(=O)CCSc3ccc(S(=O)(=O)N4CCCC4)cc32)cc1 | ? | -20%
O=C(NCc1ccccc1Cl)c1nnc(Cc2ccc(Cl)cc2)o1 | -1% | 0%
CN(C)c1ccc(C2Nc3ccc4ccccc4c3C3=C2C(=O)CC(C)(C)C3)cc1Br (centres undefined) | · | -12%
CCCn1c2ccccc2c2cnn(CC(=O)NCC3CCN(Cc4ccc(C)cc4)CC3)c(=O)c21 | 19µM* | -13%
Clc1ccc(-c2nnn3c2nc(NCc2ccc4c(c2)OCO4)c2ccccc23)cc1 | ? | 0%
CCc1cccc(C)c1NC(=O)c1nc2ccccc2nc1N1CCCCC1 | ? | -16%
CCN(CCCNC(=O)c1cc2cc3ccc(OC)cc3nc2s1)c1cccc(C)c1 | ? | -4%
Nc1nc2ccc([N+](=O)[O-])cc2s1 | · | 10%[116 µM]

Reformatted comma-delimited: part of the list above.
SMILES,PMP22 txn prim,HTT promoter inh
CCOC(=O)c1ccc(NC(=O)c2c(NC(C)=O)sc3c2CCC(C)C3)cc1 (centres undefined),20%,?
CCCCCCCC/C=C\CCCCCCCC(=O)NCc1ccc(O)c(OC)c1,·,-2%
CCC(=O)N1CCc2cc(CNC(=O)Nc3ccccc3Cl)ccc21,-12%,-10%
COc1ccc(Cn2c(=O)[nH]c3cc(C(=O)N4CCN(c5cc(C)ccc5C)CC4)ccc3c2=O)cc1,-20%,-27%
Cc1oc(-c2ccc(C(=O)NCCC(C)C)cc2)nc1CN1CCc2ccccc21,-75%,?
COc1ccc(CCNC(=O)C(C)n2c(=O)cc(C(F)(F)F)c3c(C)nn(C)c32)cc1OC (centres undefined),5%,-17%
COc1ccc(C(=O)NCc2ccc3c(c2)CCN3C(=O)c2ccc(F)cc2)cc1,2%,?
COc1ccc(CCCc2nnc(SCC(=O)Nc3cc(C)ccc3C)o2)cc1,-7%,?
CCCCC(=O)Nc1ccc2nc(SCC(=O)N3CCOCC3)sc2c1,-29%,-13%
CCOc1ccc(-c2csc(-c3c(N)c(C(=O)c4ccc5c(c4)OCO5)n4ccccc34)n2)cc1,-1%,0%
Cc1ccc(NC(=O)CN2C(=O)CCSc3ccc(S(=O)(=O)N4CCCC4)cc32)cc1,?,-20%
O=C(NCc1ccccc1Cl)c1nnc(Cc2ccc(Cl)cc2)o1,-1%,0%
CN(C)c1ccc(C2Nc3ccc4ccccc4c3C3=C2C(=O)CC(C)(C)C3)cc1Br (centres undefined),·,-12%
CCCn1c2ccccc2c2cnn(CC(=O)NCC3CCN(Cc4ccc(C)cc4)CC3)c(=O)c21,19µM*,-13%
Clc1ccc(-c2nnn3c2nc(NCc2ccc4c(c2)OCO4)c2ccccc23)cc1,?,0%

Further results:
SMILES | PMP22 txn prim | HTT promoter inh
COc1cccc(CNC(=O)C(=O)NCC(c2ccco2)S(=O)(=O)c2cccs2)c1 (centres undefined) | -15% | -26%
CCc1ccc2oc(C(=O)Nc3sc4c(c3C(=O)NC)CCCC4)cc(=O)c2c1 | 8% | -1%
CCCNC(=O)C1CCC(Cn2c(=O)c3sccc3n(CC(=O)N3CCCC(C)C3)c2=O)CC1 (centres undefined) | -1% | 7%
COc1ccccc1CCNC(=O)Cc1c(C)c2cc3c(C(C)(C)C)coc3c(C)c2oc1=O | 2% | -10%
Cc1ccc(NC(=O)c2cc(S(=O)(=O)N3CCCCC3)c[nH]2)cc1F | -8% | -1%
